Compound activity from PubChem BioAssay.
nsP2pro inh: Primary qHTS for inhibitors of NSP2Pro chikungunya virus (CHIKV); Potency, µM (doses to about 24.9 µM), for inactives: at the top dose activity change, negative = inhibition, hits mostly inhibitors; Polyprotein P1234 (Chikungunya virus (strain S27-African prototype)), Q8JUX6; hit rate 1.1% among 31,000; FRET peptide cleavage, nsP2pro, fluorescence 1 h; AID 1964107, 2024; active means well fitted inhibition curve with a large enough effect; inconclusive means small, poorly fitted or top-dose-only effect; inactive means no such curve, though single readings can be large or run the other way; further: nearly all actives have a fitted effect of over 60% in size; a reference inhibitor and vehicle were the controls
* hit, by the source's call; i = inactive; ? = inconclusive; & = joins results of further samples; [ ] = dose if it differs, or a comment. On the % scale 0 is the no-effect control and ±100 the full control effect; potency means the concentration at half of the fitted maximal effect. A portion of the library; rates above refer to the full screens.

SMILES	nsP2pro inh
O=C(c1ccc(Br)o1)N1C[C@@H](CO)[C@H](c2ccncc2)C1	i
COC(=O)C1=C[C@@H](O)[C@@H](O)[C@H](O[C@@H]2O[C@H](CO)[C@@H](O)[C@H](O)[C@H]2OC(=O)/C=C/c2ccccc2)C1	-2%[10 µM]
O=C(O)c1ccc(O)c2ncc(-c3cccc(N4CCOCC4)c3)cc12	i
N#Cc1c(C(F)(F)F)cc(-c2cccs2)nc1SCC(=O)Nc1cccc(C(F)(F)F)c1	-14%
Cc1ccc(-c2cc(-c3coc4ccccc4c3=O)c3c(n2)-c2ccccc2OC3)cc1	-12%
CC(=O)c1cccc(N(C(=O)Cn2nnc3ccccc32)C(C(=O)NCc2ccccc2)c2ccc(F)cc2)c1 (configuration not stated)	-22%
CN(C)Cc1ccc(-c2nc3cccc4c3n2CCNC4=O)cc1	0%&3%&-4%&-5%
CCCCN1C(=O)c2ccccc2NC1c1ccc(OC)c(COc2ccc(NC(C)=O)cc2)c1 (configuration not stated)	-7%
CCOc1ccccc1C1C(C(=O)Nc2ccccc2)=C(C)Nc2nc(SCC(=O)c3ccc(C)cc3)nn21 (configuration not stated)	-24%
CCOc1ccc(-c2ccc(CO)o2)cc1N	-19%
CC(=O)NC[C@H]1CN(c2ccc(N3CCN(C(=O)CO)CC3)c(F)c2)C(=O)O1	26%
CCOC(=O)c1cc2c(=O)n3ccccc3nc2n(CCCOC)c1=NC(=O)c1c(-c2ccccc2Cl)noc1C	-13%
CCn1ncc(CN2CCCC23CCN(c2ccc(C(F)(F)F)cn2)CC3)c1C	i
O=c1oc2cc(O)ccc2c2ccc(O)cc12	-8%
Cc1cccc(NS(=O)(=O)c2ccc3c(c2)n(C)c(=O)n3C)c1C	-14%

Twelve entries from above, set out differently.
| compound | nsP2pro inh |
| --- | --- |
| N#Cc1c(C(F)(F)F)cc(-c2cccs2)nc1SCC(=O)Nc1cccc(C(F)(F)F)c1 | -14% |
| Cc1ccc(-c2cc(-c3coc4ccccc4c3=O)c3c(n2)-c2ccccc2OC3)cc1 | -12% |
| CC(=O)c1cccc(N(C(=O)Cn2nnc3ccccc32)C(C(=O)NCc2ccccc2)c2ccc(F)cc2)c1 (configuration not stated) | -22% |
| CN(C)Cc1ccc(-c2nc3cccc4c3n2CCNC4=O)cc1 | 0%&3%&-4%&-5% |
| CCCCN1C(=O)c2ccccc2NC1c1ccc(OC)c(COc2ccc(NC(C)=O)cc2)c1 (configuration not stated) | -7% |
| CCOc1ccccc1C1C(C(=O)Nc2ccccc2)=C(C)Nc2nc(SCC(=O)c3ccc(C)cc3)nn21 (configuration not stated) | -24% |
| CCOc1ccc(-c2ccc(CO)o2)cc1N | -19% |
| CC(=O)NC[C@H]1CN(c2ccc(N3CCN(C(=O)CO)CC3)c(F)c2)C(=O)O1 | 26% |
| CCOC(=O)c1cc2c(=O)n3ccccc3nc2n(CCCOC)c1=NC(=O)c1c(-c2ccccc2Cl)noc1C | -13% |
| CCn1ncc(CN2CCCC23CCN(c2ccc(C(F)(F)F)cn2)CC3)c1C | i |
| O=c1oc2cc(O)ccc2c2ccc(O)cc12 | -8% |
| Cc1cccc(NS(=O)(=O)c2ccc3c(c2)n(C)c(=O)n3C)c1C | -14% |

(list continues)
SMILES	nsP2pro inh
Cc1cc(C)n2nc(C)c(C(=O)N3CCCC(c4cccc(C(=O)O)c4)C3)c2n1 (configuration not stated)	0%
CC(C)c1ccc(NC(c2nnc(-c3ccccc3)o2)c2ccc(F)cc2Cl)cc1 (configuration not stated)	-22%
CCOC(=O)c1[nH]c(C)c(C(=O)NC(CC)Cc2ccccc2)c1C (configuration not stated)	?
O=C(Nc1cccc(OCc2cc(=O)n3c4c(sc3n2)CCCC4)c1)c1ccc(F)cc1	-8%
CC(C)C[C@@H](N)[C@H](O)C(=O)N[C@H](C(=O)N[C@H](C(=O)N[C@@H](CC(=O)O)C(=O)O)C(C)C)C(C)C	-9%
COc1ccc(Cl)cc1NC(=O)CSc1nc2c(oc3ccccc32)c(=O)n1Cc1ccco1	-22%
CCCNC(=O)NCCc1ncc(C)n1CC1CC1	-1%
O=C(c1ccc2c(c1)OCCO2)N(Cc1cccnc1)c1nc2c(F)cc(F)cc2s1	-9%
COC(=O)c1ccccc1NC(=O)c1ccc(F)cc1F	?
CC(C)Cc1ccc(S(=O)(=O)Nc2cc3c(cc2N2CCOCC2)n(C)c(=O)c(=O)n3C)cc1	-24%
COc1cc(C(C)=O)c(OC)c2c1OC(C)(C)C=C2	?
Cc1nn(-c2ccccc2)c2c1C(C)N(C1CCN([S+](=O)([O-])c3ccccc3)CC1)C2=O (configuration not stated)	i
Cc1cccc(N2CCN(c3nc4ccc(C)cc4n4cnnc34)CC2C)c1 (configuration not stated)	-24%
CC1=NOC2(CCN(Cc3ccc(N(C)C)cc3)C2)C1 (configuration not stated)	-13%[39.2 µM]
COc1ccc(-c2cc(C(O)C3CCCCN3)c3ccccc3n2)cc1 (configuration not stated)	-21%
O=C(/C=C/c1ccc(O)c(O)c1)O[C@@H](C(=O)O)[C@@H](OC(=O)/C=C/c1ccc(O)c(O)c1)C(=O)O	40%[activator]
CC(C)(N)C(=O)N1CCN(c2nc(-c3ccccc3)nc3c2CCC3)CC1	i
COc1ccc(-c2nc(Nc3ccc(F)c(F)c3)c3ccccc3n2)cc1	-20%
COC(=O)C[C@H]1C(C)(C)[C@H](OC(=O)C(C)C)[C@@]2(O)C(=O)[C@]1(C)C1CC[C@]3(C)C(CC(=O)O[C@H]3c3ccoc3)[C@]13O[C@@H]32 (some centres not stated)	?
NC(=O)NCCCC(N)C(=O)O (configuration not stated)	-30%
O=C1NC(=O)C(c2ccccc2[N+](=O)[O-])=C1Nc1ccc(O)c(Cl)c1	?
O=C(NCc1ccc(F)cc1)N1CCCC(Cc2noc(-c3cccnc3)n2)C1 (configuration not stated)	i
c1nc(NCc2ccoc2)c2cc(-c3ccc4c(c3)OCO4)ccc2n1	i
O=C(CCCCCn1c(=O)c2sccc2n(CC(=O)Nc2ccccc2F)c1=O)NCc1ccc2c(c1)OCO2	-5%
CCCN(CCC)S(=O)(=O)c1ccc(N2CCCCS2(=O)=O)cc1	-35%
CN1C(=O)N(c2ccc(C#N)c(C(F)(F)F)c2)C(=O)[C@@]1(CO)c1ccccc1	0%
Cc1nc(-c2cn(C3CCCN(C(=O)c4cccc(Br)c4)C3)nn2)no1 (configuration not stated)	-3%
N#Cc1ccccc1NC(=O)C(=O)NCCc1csc2nc(-c3cccc(F)c3)nn12	-18%
Cc1ccc2oc3c(c(=O)c2c1)C(c1ccccc1F)N(CCCN1CCOCC1)C3=O (configuration not stated)	-8%
O=C1CCc2cc(S(=O)(=O)Nc3cccc4ccccc34)ccc2N1	-4%
Cc1c(NC(=O)c2nc3ccccc3nc2N2CCCCC2)cccc1[N+](=O)[O-]	-27%
COc1ccc(NC(=O)C(NC(=O)/C=C\c2ccc3c(c2)OCO3)c2ccccc2)cc1 (configuration not stated)	-17%
O=C(NC1CCCCC1)N1CCc2n[nH]c(=O)n2CC1	-5%
Cc1cnc(CCNC(=O)C2(c3ccccc3)CC2)n1Cc1ccccc1	i
CN(Cc1cccc(OC(F)(F)F)c1)C(=O)C1(c2ccc(Cl)cc2)CCOCC1	-7%
Nc1ncnc2c1ccn2[C@@H]1O[C@H](CO)[C@@H](O)[C@H]1O	-13%
CCC1CN(Cc2nc(CCOC)no2)CCC(=O)N1Cc1ccccc1 (configuration not stated)	i
O=C(O)CCc1nc(-c2ccccc2)c(-c2ccccc2)o1	-13%&1%
Cn1c(=O)c2c(ncn2C)n(C)c1=O	-6%
CCN(CC)c1ccc(C(=O)N2CCC(c3ccncc3)CC2)cc1	-18%
CN(C)c1ccc(CNC(=O)c2cnc3sc(N4CCCC4)nn3c2=O)cc1	-22%
COc1ccc2c(c1)c1c(c(=O)n(Cc3ccccc3)c(=O)n1CC(=O)Nc1c(C)cccc1C)n2C	-24%
Cc1nnc(-c2ccccc2)n1CCCn1ccnc1	-7%
COc1ccc2c(c1O)OC(C)(C)c1c-2ccc2c1C(=O)N(c1ccc(C(=O)c3ccccc3)cc1)C2=O	47%[activator]
CN(C)CCNC(=O)c1ccnc(-c2nnc3ccc(N(C)c4ccccc4)nn23)c1	i
COc1ccc(-c2nc(SCC(=O)Nc3ccc4c(c3)OCO4)c(-c3ccc(F)cc3)[nH]2)cc1OC	-25%
Cn1c(=O)c(=O)n(C)c2cc(S(=O)(=O)N3CCN(c4ccccc4F)CC3)ccc21	-13%
COc1cccc(C(=O)NC2CCCN(c3ccc4nnc(C5CC5)n4n3)C2)c1 (configuration not stated)	-3%
Oc1cc(O)cc(/C=C/c2ccc(O)cc2O)c1	-16%
COc1ccc(C2Nc3ccccc3C(=O)N2Cc2ccccc2)cc1COc1ccc(C(N)=O)cc1 (configuration not stated)	-18%
CCNC(=O)N1CC(C(=O)NCc2ccco2)CC(c2ccc(OC)c(OC)c2)C1 (configuration not stated)	?
COc1ccc(CC(=O)N2CCCC3(Cc4ccccc4CN3C(=O)C3CCCC3)C2)cc1 (configuration not stated)	?
CN(Cc1ncc[nH]1)c1ncnc2ccc(-c3ccc4c(c3)OCO4)cc12	-4%
COc1ccccc1N1CCN(S(=O)(=O)c2c(C)sc3ncn(CC(=O)N(C)c4ccc(C(C)C)cc4)c(=O)c23)CC1	?
O=C(C1CCN(c2nc(-c3ccc(Br)cc3)cs2)CC1)N1CCNCC1	i
Cc1noc(C)c1S(=O)(=O)N1CCC2(C1)N=C(c1ccccn1)C(=O)N2 (configuration not stated)	?
C=C1/C(=C/C=C2\CCC[C@]3(C)[C@@H]([C@@H](C)OCCC(O)(CC)CC)CC[C@@H]23)C[C@@H](O)C[C@@H]1O	?
CCOc1ccccc1NC(=O)c1cn(C2CCCC2)c(=O)c2c1c1ccccc1n2C	-11%
CC(=O)O[C@H]1C[C@@H]2CC[C@@H]3[C@H](CC[C@@]4(C)[C@H]3C[C@H]([N+]3(C)CCCCC3)[C@@H]4OC(C)=O)[C@@]2(C)C[C@@H]1N1CCCCC1	5%
CCn1c(C2CCCN(S(=O)(=O)c3cccc4nonc34)C2)nn(C)c1=O (configuration not stated)	2%
(listing goes on)
SMILES	nsP2pro inh
CC(=O)OCC1OC(O[C@H]2CC[C@]34C[C@]35CC(O)[C@]3(C)[C@@H]([C@H](C)CC/C=C(\C)C(=O)O)C(O)C[C@@]3(C)C5CC[C@H]4C2(C)C)C(O)C(O)C1OC1OCC(O)C(O)C1O (some centres not stated)	2%[5.1 µM]
Cc1cc2c(s1)c1cnn(Cc3ccccc3)c(=O)c1n2C	-5%
COc1ccc(C2=Nn3c(nnc3-c3cccc(OC)c3OC)SC2)c(OC)c1	3%
COc1ccccc1NC(=O)CN1C(=O)C2(SCC(=O)N2c2ccc(F)c(F)c2)c2ccccc21 (configuration not stated)	5%
CC(=O)O[C@@H]1[C@H](O[C@@H]2OC[C@](O)(CO)[C@H]2O)[C@@H](O[C@@H]2O[C@@H](C)[C@H](O)[C@@H](O[C@@H]3O[C@H](CO)[C@@H](O)[C@H](O)[C@H]3O)[C@H]2O)[C@H](OC(=O)[C@]23CCC(C)(C)C[C@H]2C2=CCC4[C@@]5(C)C[C@H](O)[C@H](O[C@@H]6O[C@H](C(=O)O)[C@@H](O)[C@H](O)[C@H]6O)[C@@](C)(C(=O)O)C5CC[C@@]4(C)[C@]2(C)CC3)O[C@@H]1C (some centres not stated)	-20%[5.1 µM]
O=C(NCc1nc(-c2ncccn2)no1)C1CCCN(Cc2ccco2)C1 (configuration not stated)	-11%
COc1ccc(NC(=O)CN2C(=O)CSc3ccc(S(=O)(=O)N4CCCC4)cc32)cc1OC	-20%
OCC1(CCCc2ccccc2)CCN(Cc2cccc3c2OCO3)CC1	i
C[C@](C#N)(COc1cc(C#N)ccc1C(F)(F)F)NC(=O)c1ccc(SC(F)(F)F)cc1	3%
C[n+]1cc2c3c(ccc2c2ccc4cc5c(cc4c21)OCO5)OCO3	?
CC12CC(O)C3CC1(O[C@@H]1O[C@H](CO)[C@@H](O)[C@H](O)[C@H]1O)C3(COC(=O)c1ccccc1)C(=O)O2 (some centres not stated)	-15%
CCC(=O)N(C1CCOCC1)C1CCN(Cc2ccc[nH]2)CC1	?
O=C(Nc1ccc2sccc2c1)Nc1nnc(-c2cccnc2)s1	i
CC(NC(=O)c1cc(Sc2ccc(F)cc2F)nc2ccccc12)c1ccccc1 (configuration not stated)	-18%
CCOc1ccc2oc(=O)cc(CN3CCN(Cc4ccc(C)cc4)CC3)c2c1	-18%
COc1ccccc1NC(=O)OCC1CCN(C(=O)OC(C)(C)C)CC1	-8%
CCc1ccc(NCc2cc3cc4c(cc3n(CC(=O)Nc3ccccc3OC)c2=O)OCCO4)cc1	?
CCN(CC)S(=O)(=O)c1ccc2c(c1)c(=O)c(C(=O)NCc1ccccc1)cn2C	-3%
COc1ccc(-n2ncc3c2CCCC3NC(=O)c2ccc3ncccc3c2)cc1 (configuration not stated)	?
CCc1noc(-c2cn(C3CCN(C(=O)Cc4cccc(OC)c4)CC3)nn2)n1	1%
O=C(CSc1nc2ccc(S(=O)(=O)N3CCOCC3)cc2[nH]1)N1CCOCC1	?
Cc1ccc(C)c(N(C)C(=O)C2CCN(S(=O)(=O)c3cccc4nsnc34)CC2)c1	5%
Cc1nc(Nc2ccccc2)c2nc(-c3ccccc3)n(CCCN3CCCCC3C)c2n1 (configuration not stated)	-24%
CCN1CCN(C(c2ccccc2F)c2c(O)cc(C)n(CCOC)c2=O)CC1 (configuration not stated)	?
Cc1cccc(-c2ncc(CN(CCC(N)=O)Cc3ccccc3)cn2)c1	-14%
